Assay outcomes as filed in PubChem.
Texas Red fluor = compound fluoresces in the Texas Red spectral region. Compound fluorescence, Texas Red channel, 547/618 nm; active compounds read high. max dye-equivalent concentration, M. actives 0.06% (n = 59,000); in the data active = max dye-equivalent concentration above about 10 nM; inconclusive = between about 1.1 nM and that limit
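Compound titrations in 100 mM Tris pH 8.0 were incubated 15 min at room temperature and read at 547 nm excitation / 618 nm emission. Texas Red six-point standard curve on each plate converted fluorescence to dye-equivalent concentration.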
Hsp90 Hop PPI = changes Hsp90-Hop TPR2A binding signal, up or down; AlphaScreen TPR2A-His6 binding biotin-Hsp90 C-terminal peptide; Potency, µM (series often up to 57 µM), for the others: at the highest dose activity change, negative = inhibition; actives 0.44% (n = 71,000); active = well fitted curve in either direction with a large enough effect; inconclusive = small, poorly fitted or top-dose-only effect, or another doubt; also: potency is read from the fitted curve at half-maximal effect; % is scaled to controls: 0 for no effect and ±100 for the full control effect; many of its hits are not listed in these tables
Fluorescein fluor = fluorescein region autofluorescence; Compound autofluorescence, 480/540 nm, fluorescein-equivalent; active compounds read high; max fluorescein-equivalent concentration, M; actives 0.91% (n = 59,000); AID 593; in the data active = max fluorescein-equivalent concentration above about 10 nM; inconclusive = between about 1.1 nM and that limit
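Compounds (23 nL) in 100 mM Tris pH 8.0, 15 min at room temperature, then fluorescence read at 480 nm excitation/540 nm emission. Signal converted to fluorescein-equivalent concentration from an on-plate fluorescein standard curve.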
DNA Pol III inh = blocks replication by bacterial DNA polymerase III holoenzyme; reconstituted DNA polymerase III holoenzyme replication, biochemical; Potency, µM (doses to about 57.1 µM), without a hit: at the top dose activity change, negative = inhibition; actives 0.25% (n = 71,000); also: potency is read from the fitted curve at half-maximal effect; % is scaled to controls: 0 for no effect and ±100 for the full control effect
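Reconstituted *E. coli* holoenzyme (0.35 nM Pol III, 1 nM beta, 154 nM SSB, 2 nM primase) was preincubated with compound for 15 min at RT. Synthesis on 1.4 nM ssM13Gori ran 35 min, then was stopped with PicoGreen/EDTA and read as dsDNA fluorescence.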
UbGFP stabilizer = inhibits proteasome, raising ubiquitin-GFP reporter fluorescence; Potency, µM (highest dose often 45.9 µM), for the others: at the highest dose activation (GFP accumulation), hits mostly activators; 67,000 tested, under 10 active; Ubiquitin-GFP reporter cells, proteasome inhibition, GFP fluorescence; response scale: untreated = 0%, 10 µM MG-132 = 100%; active = well fitted activation curve with a large enough effect, not every such curve was filed as active; inconclusive = small, poorly fitted or top-dose-only effect, or another doubt; inactive = no such curve, though single readings can be large or run the other way; also: potency is read from the fitted curve at half-maximal effect
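GFP accumulation read-out: laser plate cytometry counting ubiquitin(G76V)-GFP-expressing U2OS cells after 4 hr compound exposure at 37 °C. Titrations spanned 46 uM to 2.9 nM; 0% = basal, 100% = 10 uM MG-132; concentration-response curves fitted.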
Epigenetic mod = derepresses silenced GFP locus in mouse C127i cells. mouse C127i GFP locus derepression, cytometry, 30 h. Potency, µM (highest dose often 46.1 µM), for the others: at the top dose GFP derepression (activation). actives 0.09% (n = 68,000); also: % of control where 0% means no effect
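Derepression screen: silenced CMV-GFP reporter in murine C127i cells, 30 h compound incubation at 37 C, washed cells imaged by laser-scanning cytometer to enumerate GFP-expressing objects of 20 to 120 um.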
HBB splice mod = alters splicing of the hemoglobin beta chain. HBB splicing reporter cell assay, activation; EGFP reporter with mutant IVS2-654 intron; response scale: normalised to 500 nM splice-correcting PNA. actives 0.06% (n = 65,000). Potency, µM (series often up to 46.1 µM), for inactives: at the highest dose activation, actives largely listed as activators; also: potency is read from the fitted curve at half-maximal effect; 0% is about no effect
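Compounds were applied for 2 days to HeLa EGFP-654 cells, 500/well in Optimem with 2% FCS. The reporter's EGFP is disrupted by mis-splicing of beta-globin intron IVS2-654. Readout: summed well GFP fluorescence from 488 nm laser scanning; reference was 500 nM antisense […] 654 PNA.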
Rhodamine fluor = rhodamine region autofluorescence. Rhodamine-region fluorescence, 547/598 nm, Tris buffer; active compounds read high. max dye-equivalent concentration, M. actives 0.05% (n = 59,000). AID 594; in the data active = max dye-equivalent concentration above about 11 nM; inconclusive = between about 1.1 nM and that limit
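qHTS spectral profiling of compounds without any target or enzyme present, in pH 8.0 Tris buffer; plates were read after a 15-minute room-temperature incubation using the rhodamine-region filter set.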
15-hLO inh = blocks human 15-lipoxygenase activity; Potency, µM (doses to about 57.1 µM), without a hit: at the top dose activity change, negative = inhibition, usual class: inhibitors; actives 1.4% (n = 74,000); purified 15hLO-1, xylenol orange hydroperoxide absorbance; also: potency is read from the fitted curve at half-maximal effect; % is scaled to controls: 0 for no effect and ±100 for the full control effect; nearly all actives have a fitted effect of over 55% in size
Target sequence (P16050 whole entry, looked up): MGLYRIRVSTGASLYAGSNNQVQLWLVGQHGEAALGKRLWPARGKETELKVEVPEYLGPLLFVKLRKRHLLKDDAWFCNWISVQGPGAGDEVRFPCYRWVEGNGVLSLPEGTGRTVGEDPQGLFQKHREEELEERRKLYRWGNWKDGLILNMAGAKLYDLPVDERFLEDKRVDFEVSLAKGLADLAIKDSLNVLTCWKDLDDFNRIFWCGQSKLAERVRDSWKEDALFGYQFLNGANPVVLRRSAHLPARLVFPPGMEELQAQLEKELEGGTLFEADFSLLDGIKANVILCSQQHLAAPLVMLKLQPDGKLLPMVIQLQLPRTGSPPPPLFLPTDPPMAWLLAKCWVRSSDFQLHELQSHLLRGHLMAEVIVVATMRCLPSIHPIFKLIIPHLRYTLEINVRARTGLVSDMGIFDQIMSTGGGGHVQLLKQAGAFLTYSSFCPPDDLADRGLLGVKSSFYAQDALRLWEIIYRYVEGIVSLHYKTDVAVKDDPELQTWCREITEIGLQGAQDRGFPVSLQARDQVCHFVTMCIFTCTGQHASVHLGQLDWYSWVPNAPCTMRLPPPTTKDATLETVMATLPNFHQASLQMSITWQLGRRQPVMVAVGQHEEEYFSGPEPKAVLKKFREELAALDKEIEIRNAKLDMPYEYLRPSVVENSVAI
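Compounds were preincubated 15 min at room temperature with 40 nM purified human enzyme (25 mM Hepes pH 7.5, 0.01% Triton X-100); 50 uM arachidonic acid reacted 6 min. Fe-xylenol orange detection, 30 min, absorbance ratio 573/405 nm.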
An asterisk follows results filed as active; i = inactive; ? = inconclusive; . = no result given; [ ] = remark or other dose. Unless noted, calls follow the shape of the dose curve; as a rule, active = well fitted curve in the direction sought with a large enough effect; inconclusive = small, poorly fitted or top-dose-only effect, or another doubt; inactive = no such curve, though single readings can be large; an effect the other way counts as inactive or inconclusive. An excerpt; rates above refer to the full screens.

SMILES	Texas Red fluor	Hsp90 Hop PPI	Fluorescein fluor	DNA Pol III inh	UbGFP stabilizer	Epigenetic mod	HBB splice mod	Rhodamine fluor	15-hLO inh
COC(=O)c1ccc(C(=O)OC)c(NC(=O)CSc2nc(-c3ccco3)cc(C(F)(F)F)n2)c1	i	1.9%	i	-4.8%	-0.7%	0.0%	0.3%	i	8.5%
COC(=O)c1cc2oc3ccccc3c2n1CC(=O)Nc1ccccc1OC	i	-1.1%	i	7.1%	-8.5%	2.1%	-3.9%	i	1.6%
CCOCC(=O)Nc1nnc(COc2ccc(Cl)cc2)s1	i	-0.9%	i	-2.4%	-4.9%	0.0%	.	i	-6.5%
CCNc1ncc2nc(-c3cc(F)cc(F)c3)c(=O)n(-c3ccccc3)c2n1	i	-9.1%	?	2.4%	?	?	?	i	?
COc1ccccc1-c1nc(NCc2cccnc2)c2ccccc2n1	i	-9.3%	?	-10.0%	8.2%	5.0%[9.22 µM]	1.1%	i	?
Cc1cc(C)n(-c2nc(C)nc3c2cnn3-c2ccccc2)n1	?	3.3%	i	-5.5%	2.0%	0.0%	-0.1%[57.5 µM]	i	14.3%
COc1ccc(OC)c(C2C(C(=O)c3cc4ccccc4o3)=C(O)C(=O)N2c2cc(C)on2)c1 (stereo not drawn)	?	-8.5%	i	-6.8%	16.7%	-1.6%	1.2%	i	14.1%
Cc1cc(NC(=O)c2ccc(S(=O)(=O)N3CCCC3)cc2)nc2c1c(=O)oc1ccccc12	i	-5.2%	i	-2.8%	-9.6%	0.1%	-1.1%	i	6.4%
COC(=O)c1ccc(NC(=O)c2sc3nc(-c4ccccc4)cn3c2C)cc1	i	-4.5%	i	-2.1%	-4.7%	1.8%	-0.7%	i	-2.6%
O=C(NC1CCCCC1)N1CCC(c2nc(-c3ccc(S(=O)(=O)N4CCCC4)cc3)no2)CC1	i	0.1%	i	0.1%	3.9%	-1.3%	3.2%	i	1.3%
COc1ccc(S(=O)(=O)NC(C)C(=O)Nc2cccc(C(C)=O)c2)cc1 (stereo not drawn)	i	-3.6%	i	3.7%	2.5%	-0.1%	0.9%	i	-13.1%
CCc1nnc(NC(=O)CSc2nc3c(c(=O)n2-c2ccccc2OC)SCC3)s1	i	-0.6%	i	-2.0%	-4.4%	-1.3%	3.9%	i	-0.2%
O=C(CSc1ncnc2sc3c(c12)CCCC3)N1CCC(c2noc3ccc(F)cc23)CC1	i	-1.8%	i	1.3%	1.7%	0.0%	0.6%	i	6.8%
CC1=CC(C)(C)N2C(=O)C3(C(C#N)=C(N)Oc4cc(O)ccc43)c3cccc1c32 (stereo not drawn)	i	-9.5%	i	-5.1%	2.6%	0.0%	-0.1%	i	-20.6%
CCCCC(=O)Nc1ccc(C(=O)Nc2ccc3c(c2)OCO3)cc1	i	-1.9%	i	-1.4%	-3.0%	0.0%	-0.9%	i	-7.8%

In another format: entries from further up
Every second line gives: Texas Red fluor, Hsp90 Hop PPI, Fluorescein fluor, DNA Pol III inh, UbGFP stabilizer, Epigenetic mod, HBB splice mod, Rhodamine fluor, 15-hLO inh
> COC(=O)c1ccc(C(=O)OC)c(NC(=O)CSc2nc(-c3ccco3)cc(C(F)(F)F)n2)c1
→ i, 1.9%, i, -4.8%, -0.7%, 0.0%, 0.3%, i, 8.5%
> COC(=O)c1cc2oc3ccccc3c2n1CC(=O)Nc1ccccc1OC
→ i, -1.1%, i, 7.1%, -8.5%, 2.1%, -3.9%, i, 1.6%
> CCOCC(=O)Nc1nnc(COc2ccc(Cl)cc2)s1
→ i, -0.9%, i, -2.4%, -4.9%, 0.0%, ., i, -6.5%
> CCNc1ncc2nc(-c3cc(F)cc(F)c3)c(=O)n(-c3ccccc3)c2n1
→ i, -9.1%, ?, 2.4%, ?, ?, ?, i, ?
> COc1ccccc1-c1nc(NCc2cccnc2)c2ccccc2n1
→ i, -9.3%, ?, -10.0%, 8.2%, 5.0%[9.22 µM], 1.1%, i, ?
> Cc1cc(C)n(-c2nc(C)nc3c2cnn3-c2ccccc2)n1
→ ?, 3.3%, i, -5.5%, 2.0%, 0.0%, -0.1%[57.5 µM], i, 14.3%
> COc1ccc(OC)c(C2C(C(=O)c3cc4ccccc4o3)=C(O)C(=O)N2c2cc(C)on2)c1 (stereo not drawn)
→ ?, -8.5%, i, -6.8%, 16.7%, -1.6%, 1.2%, i, 14.1%
> Cc1cc(NC(=O)c2ccc(S(=O)(=O)N3CCCC3)cc2)nc2c1c(=O)oc1ccccc12
→ i, -5.2%, i, -2.8%, -9.6%, 0.1%, -1.1%, i, 6.4%

(list continues)
SMILES	Texas Red fluor	Hsp90 Hop PPI	Fluorescein fluor	DNA Pol III inh	UbGFP stabilizer	Epigenetic mod	HBB splice mod	Rhodamine fluor	15-hLO inh
CCOC(=O)N1CCC(NC(=O)C2CCCN(c3nc4ccccc4o3)C2)CC1 (stereo not drawn)	i	1.5%	i	-1.2%	2.9%	0.0%	1.0%[57.5 µM]	i	-2.9%
O=C(Nc1ccccc1)N1CCC(c2nc(-c3ccc(S(=O)(=O)N4CCOCC4)cc3)no2)CC1	i	-0.7%	?	-8.4%	-1.6%	-1.3%	-2.9%	i	-5.4%
Cc1nc2c(C(=O)NCc3ccccc3)c[nH]n2c(=O)c1Cl	i	-1.2%	i	-10.8%	-3.3%	-2.6%	-1.2%	i	-8.7%
CC(=O)Nc1ccc(-c2nn3c(C)nnc3s2)cc1C	i	-2.1%	?	-1.4%	1.9%	-1.3%	1.9%	i	-8.9%
COc1ccc(OC)c(S(=O)(=O)Nc2ccccc2C(=O)O)c1	i	2.1%	i	-4.0%	-3.9%	4.3%	-1.1%	i	0.8%
O=C(Nc1ccc2c(c1)OCCO2)c1cncc(Br)c1	i	-3.4%	i	2.7%	2.9%	-0.7%	-0.2%	i	-0.1%
COCCCNC(=O)c1ccccc1SC	?	-3.8%	i	2.1%	-2.5%	8.2%	-0.5%	i	-17.3%
Nc1cc(OC(=O)c2ccccc2Br)nn1S(=O)(=O)c1ccccc1	i	?	i	-1.1%	-17.3%	20.9%	-0.4%	i	-18.8%
COc1ccccc1CNc1ncnc2ccc(-c3cccc(C#N)c3)cc12	i	-7.5%	i	-6.7%	-8.2%	0.7%[9.22 µM]	-1.0%	i	-9.7%
CCN(c1ccccc1)S(=O)(=O)c1ccc2[nH]cc(C(=O)NCCOC)c(=O)c2c1	i	-0.1%	i	-20.2%	-9.5%	-1.1%	0.2%	i	-7.2%
Cc1cc(NC(=O)CC(C)(C)C)nc2c1c(=O)oc1ccccc12	i	-1.5%	i	-4.3%	-4.2%	4.2%	4.0%	i	1.4%
CSC1=C(C#N)C(C)C2=C(CC(C)(C)CC2=O)N1 (stereo not drawn)	i	-3.1%	i	-5.8%	.	-2.1%	1.6%[0.369 µM]	i	-1.0%
CCOc1ccc(C(=O)Nc2nncs2)cc1OCC	i	-1.1%	i	-5.0%	-2.0%	0.0%	-1.1%	i	12.3%
COc1ccc2nc(NC(=O)C3CCCN(S(=O)(=O)c4cccc5nonc45)C3)sc2c1 (stereo not drawn)	i	-27.8%	?	5.2%	-4.6%	-1.1%	-1.7%	i	?
CCCCOC(=O)C1=C(C)Nc2ncnn2C1c1cccc(OC)c1OC (stereo not drawn)	i	-3.3%	i	-6.5%	13.6%	2.2%	-0.1%	i	5.5%
CCNC(=O)CC1C(=O)N(c2ccc(F)cc2)C(=O)N1CCc1ccc(OC)cc1 (stereo not drawn)	i	2.3%	i	3.6%	-1.9%	-0.3%	-1.6%	i	9.5%
COc1cc2c(cc1OC)CN(C(=O)C1(c3ccccc3)CC1)CC2	i	-2.6%	i	-9.9%	2.2%	5.4%	0.6%	i	0.0%
COC(=O)c1cc2occc2n1CC(=O)Nc1ccc(C)cc1C	i	-1.9%	i	-6.7%	2.8%	0.0%	0.2%	i	-1.8%
CC(C)CCn1c(=O)c2ccccc2n2c(CN3C(=O)NC4(CCC(C)CC4)C3=O)nnc12 (stereo not drawn)	i	-1.3%	?	-0.7%	0.7%	-2.3%	1.6%	i	-10.0%
O=C(O)c1cccc(SSc2cccc(C(=O)O)c2)c1	i	-5.0%[11 µM]	i	-10.4%[11.4 µM]	2.8%[9.17 µM]	4.5%[9.22 µM]	3.4%[9.22 µM]	i	2.0%[11.4 µM]
COc1ccccc1CNc1ncnc2ccc(-c3ccccc3C#N)cc12	i	-7.6%	i	14.7%	-6.6%	0.0%[9.22 µM]	0.5%	i	-10.8%
C=C1c2c(Cl)ccc(O)c2C(O)=C2C(=O)[C@]3(O)C(O)=C(C(N)=O)C(=O)C(N(C)C)C3C(O)C12 (stereo partly drawn)	.	.	.	.	.	.	.	.	-1.0%
COc1ccccc1-c1nccc(NCc2cccnc2)n1	i	-1.7%	?	-0.8%	-4.4%	0.0%[9.22 µM]	-0.2%	i	?
Clc1ccccc1-c1nnc2sc(C3COc4ccccc4O3)nn12 (stereo not drawn)	?	-1.0%	i	-2.2%	-1.3%	2.5%	0.0%	i	?
COc1cc(OC)cc(C(=O)Nc2cc(NC(=O)c3ccco3)ccc2OC)c1	i	-1.1%	i	-5.7%	-2.0%	1.9%	5.0%[57.5 µM]	i	8.8%
N#Cc1cccc(-c2ccc3ncnc(NCc4cccs4)c3c2)c1	i	3.2%	?	-0.5%	-3.9%	2.3%[9.22 µM]	-0.9%	i	-9.2%
COc1cccc(-c2nc(NCCN3CCOCC3)c3ccccc3n2)c1	i	-3.0%	i	-10.5%	-6.6%	-1.8%[9.22 µM]	1.6%	i	16.1%
Cc1ccc2nc3c(cc(C(=O)NCc4cccnc4)c(=N)n3C(C)C)c(=O)n2c1	i	-2.0%	?	-10.9%	13.8%	-1.2%	.	i	6.1%
Cc1cc(C(=O)Nc2sc3c(c2C#N)CCC3)no1	i	-9.1%	i	-0.4%	-5.3%	6.5%	1.9%	i	-23.8%
